# Source: PubChem
# CapD inh = inhibitors of Bacillus anthracis CapD enzyme; z-score (no concentration beside the values); hit rate 0.23% among 140,000; purified CapD enzyme, fluorescence intensity read-out; active compounds read low; some hits fall short of the stated cut; AID 492967;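 active means z-score under -4 in either of two replicates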;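 further: stock transfer was 100 nL into about 40 µL; score is relative to mean and spread of the plate; one replicate is shown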
# AID504770 = growth inhibitors of E. coli YBA685 in a screen for V. cholerae RctB (chromosome II replication) inhibitors; z-score (concentration not given with the values); AID 504770; E. coli YBA685 rctB-dependent plasmid, OD600 growth, 3 h; active compounds read low; hit rate 0.27% among 130,000;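 active means z-score under -2 on both plates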;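 further: wells of about 30 µL received 100 nL stock; score is relative to mean and SD of the test wells; the first replicate is given; strong numbers were not always called active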
# * hit, by the source's call; i = inactive; nt = not tested or not shown.
item	compound	CapD inh	AID504770
1	COc1ccc(-n2c(/C=C/c3cccc(OC)c3O)nc3ccccc3c2=O)cc1OC	0.33	nt
2	O=C1C(c2sc(=S)n(-c3ccccc3)c2O)=Nc2ccccc21	-0.91	2.9
3	O=S(=O)(c1ccccc1)c1cnc2cc3c(cc2c1N1CCCCC1)OCCO3	nt	-0.65
4	CC(=O)Nc1ccc(N(CC(O)Cn2c3ccccc3c3ccccc32)S(=O)(=O)c2ccc(C)cc2)cc1 (centres undefined)	6.2	nt
5	Cc1noc(C)c1C(=O)O/N=C(/c1cccs1)C(C)(C)C	-1.2	2.2
6	CC1=NNC(=O)C1CCc1ccncc1 (centres undefined)	0.15	-0.85
7	COc1cc(C(=O)OCc2nnc(-c3ccccc3)o2)ccc1OCC(=O)Nc1ccc(F)cc1	nt	-0.6
8	CCN1C(=O)CC(C(=O)Nc2ccc(OC)cc2)SC1=Nc1ccc(C(=O)OC)cc1 (centres undefined)	-0.52	nt
9	Cc1ccccc1C(=O)Nc1ccc2c(c1)n(C)c(=O)c(=O)n2C	0.49	-0.35
10	O=C1C2C3c4ccccc4C(CO)(c4ccccc43)C2C(=O)N1c1ccc(Cl)cc1 (centres undefined)	0.95	nt
11	Cc1cccc(NCN2C(=O)C3C4C=CC(C4)C3C2=O)c1 (centres undefined)	-0.15	-0.6
12	CCOc1ccc(NC(=O)c2c(NC(=O)c3ccncc3)sc3c2CCCCC3)cc1	0.23	nt
13	COc1ccc(CC(=O)NN2CCN(c3ccccc3)CC2)cc1	0.01	-1.2
14	CC(C)CCNc1ncnc2c1sc1nc3c(cc12)COC(C)(C)C3	2.6	-0.05
15	C=CCN1C(=O)C(Cc2cccc(Cl)c2)SC1=Nc1ccc(C(=O)O)cc1 (centres undefined)	-0.63	-0.6
16	CCOC(=O)C1=C(C)N=c2s/c(=C\c3ccc(N4CCCCC4)o3)c(=O)n2C1c1ccccc1OC (centres undefined)	0.34	nt
17	COc1ccc(C(=O)NCCn2ccc3ccccc32)c(OC)c1	0.32	0.7
18	CCN1CCCC1CNC(=O)Nc1c[nH]c2ccc(C)cc2c1=O (centres undefined)	nt	-0.2
19	Cc1nc(C)c(-c2csc(NCc3ccccc3)n2)s1	nt	-0.4
20	CCOC(=O)c1ccccc1NC(=O)c1sc(NC(=O)C23CC4CC(CC(C4)C2)C3)c(C(=O)OCC)c1C	0.38	nt
21	Cc1cc(C)c2c(N)c(C(=O)Nc3ccccc3)sc2n1	-0.96	-0.05
22	COc1ccc(C2C(C(=O)NCc3ccco3)CCC(=O)N2c2ccc(OC)cc2)cc1 (centres undefined)	-0.35	-1.2
23	Cc1ccc(S(=O)(=O)CCc2nnc(NC(=O)c3ccc(C(C)(C)C)cc3)s2)cc1	0.2	nt
24	CCOc1cc(C2C(C(=O)OCCOC)=C(C)NC3=C2C(=O)CC(c2ccc(Cl)cc2)C3)cc(Br)c1O (centres undefined)	9.9	nt

# 2 of the compounds above, field by field.
[18] CCN1CCCC1CNC(=O)Nc1c[nH]c2ccc(C)cc2c1=O (centres undefined)
- CapD inh: nt
- AID504770: -0.2

[19] Cc1nc(C)c(-c2csc(NCc3ccccc3)n2)s1
- CapD inh: nt
- AID504770: -0.4

# The list goes on:
item	compound	CapD inh	AID504770
25	Cc1cccc(-c2noc(CN(C(=O)CCCN3C(=O)c4ccccc4C3=O)C3CCCCC3)n2)c1	-0.72	1.4
26	CCOC(=O)C(Cc1c(F)cccc1Cl)c1ccnc2nc(N)nn12 (centres undefined)	79	nt
27	Cc1c(C(=O)N(C)Cc2ccccc2)sc2ncn(CC(=O)Nc3cccc(C(F)(F)F)c3)c(=O)c12	-0.35	nt
28	NNC(=O)c1c(NC(=O)c2ccccc2)sc2c1CCC2	0.38	-0.25
29	Cc1cc(OCC(=O)N2CCOCC2)ccc1NC(=O)C1CCCCC1	-0.1	-0.4
30	CC(=O)N1CCc2ccc(NS(=O)(=O)c3ccc(C(C)(C)C)cc3)cc21	-0.55	nt
31	CC12CC3CC(C1)CC(NC(=O)c1ccc(Cl)cc1Cl)(C3)C2	-0.84	0.2
32	Cc1cc(N)nc2nc(C(F)(F)F)nn12	0.08	-0.85
33	CCc1cccc(NC(=O)C2CCCN(S(=O)(=O)c3cccnc3)C2)c1 (centres undefined)	-0.035	1.1
34	CCOC(=O)C1=C(C)N=c2s/c(=C\c3cccc(OC)c3OC)c(=O)n2C1c1cc(OC)ccc1OC (centres undefined)	0.25	nt
35	CC(C)(C)c1ccc(OS(=O)(=O)O)c(CN2CCCCC2)c1	-0.55	nt
36	CS(=O)(=O)N1CCN=C1SCc1ccccc1	nt	0.2
37	CC(C)c1cccc(C(C)C)c1NC(=O)c1ccc2ncccc2c1	-0.075	-0.5
38	COC(=O)c1c(-c2cccs2)csc1NC(=O)CN1CCOCC1	nt	-0.85
39	Cc1ccccc1C(=O)NC1CCN(CC(=O)NC2CCCCC2)CC1	nt	0.5
40	O=C(NCCCN1CCCC1=O)c1ccc2c(=O)n(-c3cc(C(F)(F)F)ccc3Cl)c(=S)[nH]c2c1	-0.025	nt
41	CCC(=O)N1CCN=C1SC	2	-0.2
42	COCc1[nH]c(=S)[nH]c(=O)c1C	0.005	0.85
43	O=C(OCC(=O)c1cc(Cl)ccc1Cl)c1cccc(O)c1	-0.49	-0.25
44	CCCCCOc1ccc(C(=O)/C=C/C(=O)O)cc1	nt	1.2
45	O=C(CSc1nnc(CN2CCCCCC2=O)n1-c1ccccn1)c1ccccc1	nt	-0.35
46	Cc1cc(S(=O)(=O)NCC(C)C)ccc1OCC(N)=O	0.66	-2.5
47	Cc1ccc(OC(=O)c2ccc3snnc3c2)cc1	nt	1.4
48	CC(C)(C)c1ccc(C(=O)Nn2cnc3c(cnn3C(C)(C)C)c2=O)cc1	nt	0.05
49	COc1ccc(NC(=O)CSc2c[nH]c3ccccc23)c(OC)c1	-0.46	0.55
50	O=C(NC1CCN(Cc2cccc3ccccc23)CC1)c1ccccc1	0.085	-0.45
51	CC(=O)N/N=C/c1c(C)[nH]n(-c2ccccc2)c1=O	-1.1	-0.65
52	Cc1ccc(C)c(N2CCN(S(=O)(=O)c3ccc4nc(-c5ccccc5)[nH]c4c3)CC2)c1	-0.35	-0.25
53	CN1CCC2(CC1)Nc1ccccc1S2	-0.54	nt
54	COC(=O)C(NC(=O)c1ccc(S(=O)(=O)N2CCOCC2)cc1)C(C)C (centres undefined)	-1.6	1.9
55	c1ccc(-n2cnnc2SCc2cn3ccsc3n2)cc1	i	-0.55
56	Cc1cc2c(c(=O)[nH]1)C(c1ccc(C(C)C)cc1)C(C#N)=C(N)O2 (centres undefined)	-0.32	-0.45

# The listing continues:
# The line under a structure holds: CapD inh | AID504770
57) Cc1c(OCc2cccc(OC(F)(F)F)c2)ccc2c1OC(C)(C)CC2=O
→ 0.015 | nt
58) CN(Cc1ccccc1)C(=O)CN(c1cccc(F)c1)S(C)(=O)=O
→ 0.31 | -0.9
59) O=C(c1ccc(-n2cccn2)cc1)N1CCc2ccccc2C1
→ 1.3 | 0.7
60) CCOc1ccc(-n2c(=S)sc3c2nc(SCC(=O)Nc2cccc(OC)c2)n2c4ccccc4nc32)cc1
→ -0.14 | nt
61) CC(C)N=Cc1c(Cl)nc2sccn12
→ -1.1 | -1
62) CN(C)C(=O)c1ccc(N)cc1
→ nt | 0.05
63) Cc1cccc(C(=O)Nc2cc(-c3ccccc3)no2)c1
→ -0.1 | -0.65
64) COc1ccc2c(c1)CCCN2C(N)=O
→ -0.3 | -0.2
65) CC(C)(CNC(=O)/C=C/c1ccc(Br)cc1)N1CCOCC1
→ nt | 0.65
66) C/C(=N\NC(=O)CSc1nnc(SCc2ccccc2)s1)c1ccco1
→ 0.11 | -1.1
67) Cn1ncc(C(=O)O)c1C(F)(F)F
→ 0.68 | 0.55
68) CC1Cc2ccccc2N1C(=O)c1cc2ccccc2oc1=O (centres undefined)
→ 0.045 | 1.2
69) CCN(Cc1ccc(/C=C2\C(=O)Nc3ccccc32)o1)S(C)(=O)=O
→ nt | 1.5
70) CC1CCCC(C)N1C(=O)COC(=O)c1ccc(C#N)cc1 (centres undefined)
→ -0.025 | 0.25
71) O=C1OC(Oc2cccc3cccnc23)(c2ccccc2)c2ccccc21 (centres undefined)
→ 18 | -0.45

# Another view of 4 compounds above:
[57] Cc1c(OCc2cccc(OC(F)(F)F)c2)ccc2c1OC(C)(C)CC2=O
  CapD inh: 0.015 | AID504770: nt
[58] CN(Cc1ccccc1)C(=O)CN(c1cccc(F)c1)S(C)(=O)=O
  CapD inh: 0.31 | AID504770: -0.9
[59] O=C(c1ccc(-n2cccn2)cc1)N1CCc2ccccc2C1
  CapD inh: 1.3 | AID504770: 0.7
[60] CCOc1ccc(-n2c(=S)sc3c2nc(SCC(=O)Nc2cccc(OC)c2)n2c4ccccc4nc32)cc1
  CapD inh: -0.14 | AID504770: nt

# Further entries.
# The line under a structure holds: CapD inh | AID504770
72) N#CCc1ccsc1
→ nt | -0.8
73) O=C(NC1CCCCC1)c1ccc(COCC(F)(F)F)o1
→ -0.04 | -0.2
74) O=C(CN(C1CCCCC1)S(=O)(=O)c1ccccc1)NCc1ccco1
→ nt | -0.45
75) CC(C)(C)C(=O)c1sc2nc3c(c(-c4cccs4)c2c1N)CCC3
→ 0.99 | -0.75
76) CC(C)c1cccc(C(C)C)c1OCCOCCN1CCNCC1
→ -0.26 | -0.6
77) CCN(CC)C(=O)Cn1c(=O)n(-c2ccccc2)c(=O)n1CC(=O)N(CC)CC
→ -1.6 | 0
78) CC(C)(C)C(=O)Nc1c2c(nn1-c1ccc(F)cc1)CS(=O)(=O)C2
→ 0.22 | -0.5
79) CCc1ccc(OCC(=O)OCCN2CCCC2=O)cc1
→ 0.25 | -0.1
80) COc1ccc2nc(C)cc(NCC3CCCO3)c2c1 (centres undefined)
→ nt | 0
81) CCOc1cc(C(C#N)N2CCOCC2)ccc1OC (centres undefined)
→ 0.17 | -0.8
82) C#CCSc1nc2cc(S(C)(=O)=O)ccc2n1C(C)C
→ 0 | nt
83) Cc1ccc2c(N)c(C(=O)N3c4ccccc4Sc4ccccc43)sc2n1
→ 0.34 | nt
84) Cc1ccc2[nH]c(=O)c3cc(C(=O)N(C)c4ccccc4)sc3c2c1
→ -0.38 | -0.5
85) Cc1cc2cc(CNC(=O)Cc3cccs3)ccc2[nH]1
→ -0.27 | -0.7
86) Cc1cc(C)cc(NC(=O)c2oc3c(c2C)-c2[nH]ncc2CC3)c1
→ 0.59 | 1.2
87) CC(C)c1nc2ccc(N)cc2s1
→ nt | 2
88) O=C(CNS(=O)(=O)c1cccc2nsnc12)NNC(=O)OCCN1CCOCC1
→ -1.6 | nt
89) Cc1nn(C)c(C)c1/C=N/NS(=O)(=O)c1ccccc1
→ nt | 0.9
90) FC1(F)C2C3C=CC(O3)C2C1(F)F (centres undefined)
→ nt | -0.5
91) Cc1ccccc1Cn1c(=O)c2c(ncn2C)n(C)c1=O
→ -0.27 | nt
92) CCOc1ccc(Oc2cc(NC(=O)c3cnn4c3NC(c3cccs3)CC4C(F)(F)F)cc([N+](=O)[O-])c2)cc1 (centres undefined)
→ 0.21 | nt
93) C=CCN(CC=C)CC(O)Cn1c2ccc(Cl)cc2c2cc(Cl)ccc21 (centres undefined)
→ -0.54 | nt
94) CCN(C(=O)Cn1cnc2sccc2c1=O)C1CCS(=O)(=O)C1 (centres undefined)
→ nt | -0.35
95) Cc1cccc(OCC(=O)Nc2ccc(S(N)(=O)=O)cc2)c1C
→ nt | 1.1
96) COc1ccc(OCC(O)CNS(=O)(=O)c2ccc(-c3ccccn3)s2)cc1 (centres undefined)
→ 0.32 | -0.2
97) CN(C)c1nc(-c2ccccc2O)nc2ccccc12
→ -0.31 | 2.1
98) COc1ccccc1C(=O)N/C(=C/c1ccc2c(c1)OCO2)C(=O)Nc1ccc(C(=O)O)cc1
→ -0.17 | nt
99) CC(=O)Nc1c(OC(C)=O)ccc2c(C)cc(=O)oc12
→ 1.7 | 2.2
100) O=C(Cn1c(-c2cccs2)cc2ccccc21)NC1CCCCC1
→ -0.27 | 1.6
101) Cc1cc(C(=O)CN2c3cccc4cccc(c34)S2(=O)=O)c(C)n1C
→ nt | -0.5
102) Cc1nc2ccccc2nc1Oc1ccc(Cl)c(F)c1
→ 0.72 | -0.35
103) Cc1cc(C)nc(Nc2ccc(C(=O)OCC(C)C)cc2)n1
→ 0.46 | 0.2
104) CC(=O)c1c(C)oc2ccc(N(C(=O)c3ccc([N+](=O)[O-])cc3)S(=O)(=O)c3ccc(C)cc3)cc12
→ -0.015 | nt
105) C/C(=N\O)c1csc(-c2snnc2C)n1
→ -0.12 | -0.9
106) COc1cc(C2CC(=O)C3=C(C2)Nc2ccccc2N(C(=O)CCC(=O)O)C3c2cccc(F)c2)cc(OC)c1OC (centres undefined)
→ 6.2 | nt
107) CCOC(=O)C1=C(N)Oc2n[nH]c(C(C)(C)C)c2C12C(=O)Nc1ccc(Br)cc12 (centres undefined)
→ 0.45 | nt
108) Cc1cccc2sc(NC(=O)c3sc4ncn(Cc5cccc(F)c5)c(=O)c4c3C)nc12
→ -0.32 | nt
109) CN(C)Cc1c(C#N)c2ccccc2n1C
→ -0.26 | -1
110) O=c1[nH]cnc2c1cnn2-c1ccc(C(F)(F)F)cn1
→ -0.44 | -1.1
111) C#C[C@]1(O)CCC2C3CCc4cc(OC)ccc4C3C(C)CC21C (some centres undefined)
→ -0.21 | nt
112) COCCNC(=O)Nc1ccc(F)cc1
→ -0.2 | -1.2
113) Brc1ccc(-c2nc(-c3ccc(Br)cc3)c(-c3ccccc3Br)[nH]2)cc1
→ -0.37 | nt
114) O=C(CCCO)Nc1ccc2c(c1)OCCO2
→ 1.1 | -0.4
115) CCOC(=O)CN1C(=O)S/C(=C/c2cn(CC(N)=O)c3ccccc23)C1=O
→ nt | 0.2
116) CCS(=O)(=O)Nc1cc2c3c(n(S(=O)(=O)CC)c2cc1C)CCC3
→ nt | 0.55
117) O=C(CC1Sc2ccccc2NC1=O)Nc1ccc2c(c1)OCO2 (centres undefined)
→ -0.07 | 0.75
118) O=C(CSc1nc2ccccc2c(=O)n1C1CC1)c1ccc(Cl)cc1
→ 0.69 | -0.55
119) CCOC(=O)C(Sc1nc(C)cc(=O)[nH]1)c1ccccc1 (centres undefined)
→ nt | -1.1
